Screening results: PubChem BioAssay, Broad Institute
STK33 inh = blocks human STK33 kinase activity; Q9BYT3; hit rate 0.073% among 320,000; purified STK33, MBP phosphorylation, ADP-Glo luminescence; AID 2661; inhibition, % at 10 µM;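 active = inhibition at or above 25%, using the most active replicate where run in duplicate; inactive = inhibition below 25%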
Target sequence (Q9BYT3 whole entry, looked up): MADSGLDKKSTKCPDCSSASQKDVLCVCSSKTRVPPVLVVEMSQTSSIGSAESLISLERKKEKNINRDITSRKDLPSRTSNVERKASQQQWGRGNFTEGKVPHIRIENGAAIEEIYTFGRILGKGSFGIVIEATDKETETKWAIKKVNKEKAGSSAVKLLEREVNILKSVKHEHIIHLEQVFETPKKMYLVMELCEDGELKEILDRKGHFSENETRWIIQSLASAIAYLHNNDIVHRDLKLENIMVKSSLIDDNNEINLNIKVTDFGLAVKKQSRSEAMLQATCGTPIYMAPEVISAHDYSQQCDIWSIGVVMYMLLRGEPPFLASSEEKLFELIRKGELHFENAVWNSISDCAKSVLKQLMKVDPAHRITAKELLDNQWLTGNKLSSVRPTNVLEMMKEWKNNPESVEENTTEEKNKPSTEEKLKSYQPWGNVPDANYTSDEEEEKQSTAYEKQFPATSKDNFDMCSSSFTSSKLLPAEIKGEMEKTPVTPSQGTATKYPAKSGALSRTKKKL
An asterisk follows results filed as active. This is a subset, and most or all hits are left out here.

STK33 inh	Structure
0.1	CCc1cc(C(=O)N2CCCC(Nc3ccc(F)c(F)c3)C2)n(C)n1 (configuration not stated)
-1.5	N#C/C(=C\c1cccnc1)c1ccc([N+](=O)[O-])cc1
-2.0	COc1cccc2cc(C(=O)N3CCCCCCC3)c(=O)oc12
-0.5	CCOc1cc(S(=O)(=O)Nc2cc(C)cc(C)c2)ccc1Cl
-1.7	Cc1ccc(/C=C/C(=O)Nc2nn[nH]n2)o1
-0.4	CCOc1ccc(S(=O)(=O)Nc2cccc(C(=O)N(C)CC(=O)Nc3cccc(OC)c3)c2)cc1
0.2	CC1(c2ccccc2)NC(=O)N(CC(=O)Nc2ccccc2C(=O)NC2CC2)C1=O (configuration not stated)
0.1	CCCn1nc(NS(=O)(=O)c2cccc3nonc23)c2cc3ccccc3nc21
0.7	NC(=O)c1oc2ccccc2c1NC(=O)CN1CCCCC1
1.0	COc1ccc(NC(=O)CSc2ncnc3[nH]ncc23)cc1
-0.8	O=C(CSc1nnc(Cc2cccs2)n1-c1ccccc1)NC1CCCCC1
1.4	Cc1ccn2cc(-c3cccc(NS(C)(=O)=O)c3)nc2c1
-2.3	CCCCNC(=O)c1ccccc1NC(=O)c1ccc2c(c1)OCO2
0.7	O=C(CCN1CCC(c2cccs2)=N1)c1cccs1
-1.1	Cc1cccc(NC(=S)NCCc2ccc(Cl)cc2)c1C
-1.9	CC(C)(C)c1nnc2cccc(Cl)n12
-2.6	CN(C)c1ccc(N=Nc2ccc(C(=O)O)cc2)cc1
-3.2	CCn1c(SCc2c(Cl)cccc2Cl)nc2nc3c(cc2c1=O)CCCC3
-0.7	Cc1ccc(S(=O)(=O)NCc2ccc(N3CCN(C(=O)OC(C)(C)C)CC3)cc2)cc1
-1.3	COc1ccc(CCN2C(=S)NC3CC2(C)Oc2ccc([N+](=O)[O-])cc23)cc1OC (configuration not stated)

In the list so far, these contain a Cl atom.
STK33 inh	Structure
-0.5	CCOc1cc(S(=O)(=O)Nc2cc(C)cc(C)c2)ccc1Cl
-1.1	Cc1cccc(NC(=S)NCCc2ccc(Cl)cc2)c1C
-1.9	CC(C)(C)c1nnc2cccc(Cl)n12
-3.2	CCn1c(SCc2c(Cl)cccc2Cl)nc2nc3c(cc2c1=O)CCCC3

Additional structures.
STK33 inh	Structure
-2.3	Cc1ccc(CNC(=O)c2cc3cc(Br)ccc3oc2=N)cc1
-1.3	O=S(=O)(Nc1nc2ccccc2nc1-[n+]1ccccc1)c1ccc(Cl)cc1
-3.0	Cc1csc(SC(C)C(=O)Nc2ccc(S(=O)(=O)N3CCCC3)cc2)n1 (configuration not stated)
-0.2	COc1ccc(NC(=O)CC2C(=O)N(C)C(=S)N2Cc2cccs2)cc1 (configuration not stated)
-1.9	CSCCC(NS(=O)(=O)c1ccc2c(c1)oc(=O)n2C)C(=O)NCc1cccs1 (configuration not stated)
-0.4	CCc1cccc(NS(=O)(=O)c2c(C)[nH]c(=O)[nH]c2=O)c1
-2.1	CCOC(=O)C1=C(O)CSC1=Nc1ccc(C)cc1
-1.2	COc1ccc(C(=O)NNC(=O)CCC(=O)Nc2cc(C)on2)cc1
-5.1	CC(/C=N/NC(=O)c1ccccc1C)=C\c1ccccc1
-2.7	O=C(CSc1ccc2ccccc2c1)Nc1ccc(S(=O)(=O)Nc2nccs2)cc1
-0.5	O=C(NC1CCCCC1)c1ccc(S(=O)(=O)N2CCCC2)cc1
0.0	O=C(NCCC1=CCCCC1)c1ccc2c(c1)N(Cc1ccccc1)C(=O)CS2
0.1	COC(=O)[C@@H](Cc1c[nH]c2ccccc12)NC(=O)C1CCCN(S(=O)(=O)c2ccc(C)cc2)C1 (some centres not stated)
-1.5	Cc1ccc(NC(=O)CN2CCC(C(=O)c3ccc4c(c3)OCCO4)CC2)cc1
-2.1	Cc1ccc(Sc2nc(-c3ccccc3)ccc2C#N)cc1
0.1	COc1ccc(NC(=O)C(CC(C)C)NC(=O)C2CCCCC2)c(OC)c1 (configuration not stated)
-2.7	CCOC(=O)N1CCN(C(=O)C2CCCN(S(=O)(=O)c3ccc(C)cc3)C2)CC1 (configuration not stated)
1.8	CN(C)c1ccc(C=NCC2COc3ccccc3O2)cc1 (configuration not stated)
1.2	O=C1CCOc2cc(OCc3ccccc3)ccc21
-0.1	CCc1ccc(-c2nc(CS(=O)CC(=O)NCCN3CCCCCC3)c(C)o2)cc1 (configuration not stated)
-1.5	O=C(CCC(=O)N1CCSc2ccccc21)Nc1ccc(F)cc1
-1.3	O=[N+]([O-])c1cccc(-c2cn3nc(-c4ccccc4)c(-c4ccccc4)nc3n2)c1
-0.4	CCOC(=O)c1[nH]c(COC(=O)CCCOc2ccccc2)c(C(=O)OCC)c1C
-0.3	Cc1ccc(S(=O)(=O)N2CCOCC2)cc1NC(=O)CN(C)C1CCS(=O)(=O)C1 (configuration not stated)
-1.5	CCOC(=O)Cn1cc(Cl)c(=O)c(Cl)c1
-0.7	CC(C)NC(=O)COC(=O)c1cccc(NS(=O)(=O)/C=C/c2ccccc2)c1
0.1	Cn1cccc1/C=N/NC(=O)c1ccccn1
0.9	CCOC(=O)c1[nH]c(C)c(/C(O)=C2\C(=O)C(=O)N(CCCN(C)C)C2c2cccnc2)c1C (configuration not stated)
-1.2	CC(C)Oc1ccc(CSc2nnc3n(C)c(=O)c4c5c(sc4n23)CCCC5)cc1
0.8	CC(C)C(=O)Nc1cc(S(=O)(=O)Nc2cccc(Cl)c2)ccc1Cl
-0.2	CCOC(=O)N1CCN(C(=O)Cc2ccc(-n3c(=O)[nH]c4ccccc4c3=O)cc2)CC1
-3.0	O=C(Nc1ccccc1)N(CCN1CCOCC1)Cc1cccc(Cl)c1
-0.3	CCC(C)[C@H](NC(=O)Nc1ccc(C(C)=O)cc1)C(=O)OC (some centres not stated)
-0.1	O=C(O)CCC1(C(=O)O)OCCc2ccccc21 (configuration not stated)
-1.8	Cc1ccc2ncc([N+](=O)[O-])n2c1
-2.3	Cc1nn(Cc2c(Cl)cccc2Cl)c(C)c1NC(=O)c1cn(-c2ccccc2)nc1-c1ccccc1
0.2	N#Cc1ccsc1NC(=O)c1ccccn1
-0.1	O=C(O)c1cccc(NC(=O)c2cc(-c3cccc(Cl)c3)nc3ccccc23)c1
-1.8	Cc1ccc(NC(=O)C2CCCN(C(=O)Nc3ccc(F)cc3)C2)cc1 (configuration not stated)
1.3	Cn1ccnc1C(OC(=O)c1ccc(Cl)cc1)C(F)(F)F (configuration not stated)

7 structures already listed, ordered by formula weight, descending:
STK33 inh	Structure
-2.3	Cc1nn(Cc2c(Cl)cccc2Cl)c(C)c1NC(=O)c1cn(-c2ccccc2)nc1-c1ccccc1
-0.2	CCOC(=O)N1CCN(C(=O)Cc2ccc(-n3c(=O)[nH]c4ccccc4c3=O)cc2)CC1
-0.1	O=C(O)c1cccc(NC(=O)c2cc(-c3cccc(Cl)c3)nc3ccccc23)c1
-1.8	Cc1ccc(NC(=O)C2CCCN(C(=O)Nc3ccc(F)cc3)C2)cc1 (configuration not stated)
1.3	Cn1ccnc1C(OC(=O)c1ccc(Cl)cc1)C(F)(F)F (configuration not stated)
-0.1	O=C(O)CCC1(C(=O)O)OCCc2ccccc21 (configuration not stated)
-1.8	Cc1ccc2ncc([N+](=O)[O-])n2c1

More records:
STK33 inh	Structure
-2.2	O=C(NCc1ccc2c(c1)OCO2)c1ccc(N2CCCC2=O)cc1
-3.9	CCOc1ccc(NC(=O)CCNS(=O)(=O)c2ccc(Br)s2)cc1
-1.1	O=C1COc2ccc(C(=O)CSc3nnnn3-c3ccccc3)cc2N1
-0.1	c1ccc(-c2csc(-c3cccnc3)n2)cc1
-2.3	CCN(CC)Cc1ccc(OC)c(Cl)c1
-0.2	COc1cccc(/C=C/C(=O)OCC(=O)Nc2cccc(S(=O)(=O)N3CCCCC3)c2)c1OC
0.8	O=C(CN1CCN(c2ccccn2)CC1)N1CCc2ccccc21
-0.9	COc1ccccc1-n1c(SCC(=O)Nc2cc(C)on2)nc2c([nH]c3ccccc32)c1=O
-4.1	CC(C)n1c(=O)n(CC(=O)NCC2CCCO2)c(=O)c2c3c(sc21)COC(C)(C)C3 (configuration not stated)
-1.2	COc1ccccc1CC(=O)Nc1cc(Cl)ccc1O
-2.5	COC(=O)c1[nH]c2ccccc2c1NS(=O)(=O)c1ccc(OC)cc1OC
-0.4	NC(=O)NC(=O)COC(=O)CCSc1ccccc1
-0.4	CCN1CCN(C(=O)/C=C/c2ccc(F)cc2)CC1
-3.5	Cn1sc(=O)c2cc(S(=O)(=O)NC3CC3)ccc21
-0.1	COc1ccc(CCNC(=O)COc2cc(O)c3c(c2)OC(C)(C)CC3=O)cc1
0.5	Cc1ccc(C(=O)NCc2ccccn2)c(Cl)c1
0.4	COc1cc(/C=C(/C#N)c2ccccc2)ccc1Oc1ccc([N+](=O)[O-])cn1
1.1	Fc1ccccc1COc1ccc(Br)cc1CNCc1ccncc1
-1.0	O=C(c1ccc(NC2=NC3CS(=O)(=O)CC3S2)cc1)N1CCN(c2ccc(F)cc2)CC1 (configuration not stated)
-0.5	COc1cccc(C2=CC(=O)CC(c3ccco3)C2)c1 (configuration not stated)
-0.4	Cc1ccc(Cl)cc1N1CCN(S(=O)(=O)c2c(C)noc2C)CC1
-0.5	O=C(CCN1C(=O)c2ccncc2C1=O)Nc1cc(F)ccc1F
3.5	COc1nc(N/N=C/c2ccc(-c3ccccc3[N+](=O)[O-])o2)nc(N2CCOCC2)n1
-1.3	CC(=O)c1cccc(OCc2cc(C(=O)NC3CCN(Cc4ccccc4)CC3)no2)c1
-0.2	Cc1nn(-c2ccccc2)c2c1C1(C(=O)N3c4c(cccc41)C(C)CC3(C)C)C(C#N)=C(N)O2 (configuration not stated)
0.0	Cc1cccn2c(=O)c3cc(C(=O)NCC(C)C)sc3nc12
0.7	O=C(COc1ccc(Cl)cc1Cl)NN1C(=O)/C(=C\c2ccc(Cl)cc2)SC1=S
-0.2	COc1ccc(OC)c(NC(=S)NN2CCN(C)CC2)c1
0.7	CCCOc1ccc([C@@H]2C3CN(C(=O)OCC)CC=C3C(C#N)=C(N)C2(C#N)C#N)cc1OC (some centres not stated)
0.4	CCOC1OC2C(CO)OC(n3cnc4c(N)ncnc43)C2O1 (configuration not stated)
-1.9	COCc1ccc(C(=O)N2CCCC(N(C)CCc3ccc(OC)c(OC)c3)C2)s1 (configuration not stated)
-2.6	Nc1cc(N)nc(SCC(=O)NCCC2=CCCCC2)n1
2.1	COc1ccc(S(=O)(=O)NNC(=O)c2ccc([N+](=O)[O-])cc2)cc1
-0.5	NC(=O)N(CCC(=O)O)c1ccccc1
-1.9	Cc1nnn(C23CC4CC(CC(C(=O)NN)(C4)C2)C3)n1
-1.0	CCC(CC)C(=O)Nc1ccc([N+](=O)[O-])cn1
-0.4	COC(=O)C1=C[C@@H](C(=O)OC)[C@@H]2C3=C(C(=O)[C@]2(C)NC(=O)c2ccccc2)[C@H](C)n2c(=O)n(-c4ccccc4)c(=O)n2[C@@H]3C1
-2.6	O=C1CC(N2CCOCC2)=NN1c1ccc([N+](=O)[O-])cc1
-1.0	COc1cc(C(=O)NCC2CCCCC2)cc(OC)c1OC
-1.5	O=C(O)C1CCC(=O)N(C2CCCCC2)C1c1ccccc1 (configuration not stated)

Individual results from the results shown.
CCOc1ccc(S(=O)(=O)Nc2cccc(C(=O)N(C)CC(=O)Nc3cccc(OC)c3)c2)cc1 – STK33 inh = -0.4
Cc1ccc(S(=O)(=O)N2CCOCC2)cc1NC(=O)CN(C)C1CCS(=O)(=O)C1 (configuration not stated) – STK33 inh = -0.3

Back to the main list, starting 4 compounds before the break.
STK33 inh	Structure
-0.4	COC(=O)C1=C[C@@H](C(=O)OC)[C@@H]2C3=C(C(=O)[C@]2(C)NC(=O)c2ccccc2)[C@H](C)n2c(=O)n(-c4ccccc4)c(=O)n2[C@@H]3C1
-2.6	O=C1CC(N2CCOCC2)=NN1c1ccc([N+](=O)[O-])cc1
-1.0	COc1cc(C(=O)NCC2CCCCC2)cc(OC)c1OC
-1.5	O=C(O)C1CCC(=O)N(C2CCCCC2)C1c1ccccc1 (configuration not stated)
0.3	O=C(NC(=S)Nc1cc(-c2nc3ccccc3[nH]2)ccc1Cl)c1ccc2c(c1)OCO2
-1.2	Cc1nc2oc3ccc(F)cc3c(=O)c2cc1C(=O)NC(C)(C)C
0.5	C/C(=N/NC(=O)c1ccc2nc[nH]c2c1)c1cccs1
-0.8	Cc1nn(C(C)C(=O)O)c(=O)c2c1sc1ccccc12 (configuration not stated)
0.2	COc1ccc(OCC(O)CNC(C)c2ccccc2)cc1 (configuration not stated)
2.1	COc1ccc2[nH]c(C(=O)O)c(NC(=O)c3cc(OC)c(OC)c(OC)c3)c2c1
-0.5	O=S(=O)(NCc1cccs1)c1cccc2cccnc12
-2.1	CCC(C(=O)NCCc1ccco1)n1nc(C)c2c(C)n(-c3ccccc3)nc2c1=O (configuration not stated)
1.5	S=C(Nc1ccc(N2CCOCC2)cc1)Nc1ccc2nc(-c3ccco3)c(-c3ccco3)nc2c1
5.2	CN(CC(=O)NC1CC1)S(=O)(=O)c1ccc(Br)cc1
0.5	CCOC(=O)/C(C#N)=C/N1CCOCC1
-0.6	O=C(CNS(=O)(=O)c1ccccc1)N1CCN(C(=O)c2ccco2)CC1
-1.2	Cc1cc(C)n(-c2ccc(C(=O)Nc3ccc4c(c3)OCO4)cc2)n1
-1.0	NS(=O)(=O)c1cc(C(=O)OCC(=O)c2ccc3c(c2)OCCO3)ccc1Cl
-1.2	O=C(N/C(=C/c1ccc(Br)cc1)c1nc2ccccc2[nH]1)c1ccco1
0.4	Cc1ccc(C)c(NC(=O)C2=CCN(S(=O)(=O)c3ccc(F)cc3)CC2)c1
-7.0	Cc1noc(C)c1CSc1nnc(-c2ccccc2)n1Cc1ccco1
-0.7	CN1CCN(/N=C/c2ccc(Br)cc2)CC1
-0.4	Cc1ccc(-c2csc(NC(=S)NC(=O)c3cc4ccccc4o3)n2)cc1
0.7	CCOC(=O)N1CCC(NC(=O)CN(C)S(=O)(=O)c2cc3c(cc2Cl)NC(=O)CO3)CC1
1.5	CCc1nn(CCCC(=O)NC(C)c2ccccc2)c(=O)c2cc3occc3n12 (configuration not stated)
-0.4	CC1CCC(NC(=O)Cn2cc3c(n2)CCCC3)CC1 (configuration not stated)
-0.7	CC(=O)OCCN(CCCn1c(-c2ccncc2)nc2ccccc21)c1nc(CN2CCCCC2)cs1
